Assay outcomes (PubChem)
UUG fidelity: alters start codon recognition fidelity in yeast; 350,000 compounds, 0.13% hits; S. cerevisiae UUG-firefly luciferase reporter, luminescence/redox ratio; activity score, % at 18.7 µM; AID 602363;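 active = replicate mean at a twofold rise or more, about +100% in these data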;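 also: firefly luciferase made from a UUG start codon reports start codon fidelity; reporter light over untreated wells divided by growth signal over untreated wells; some hits fall short of that in this replicate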
HIV Env fusion: inhibitors of HIV Env-mediated cell fusion; AID 651610; HeLa-JRFL Env/CEM21 cell fusion, luciferase; 360,000 compounds, 1.1% hits; inhibition, % at 12.3 µM;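 active = mean replicate inhibition score of at least 50 and every replicate individually at or above 50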;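 also: 0% = plate neutral controls and 100% = maraviroc near 300 nM; one replicate is shown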
Starred values were filed as active, the others as inactive; [ ] = remark or other dose. Only part of the results is shown; rates above refer to the full screens.

| HIV Env fusion | UUG fidelity | SMILES |
| --- | --- | --- |
| 3[16.7 µM] | 10 | C[C@H]1CCCCO[C@@H](CN(C)C(=O)CCCN(C)C)[C@@H](C)CN([C@@H](C)CO)C(=O)c2cc(NS(=O)(=O)c3ccccc3)ccc2O1 |
| 4[16.7 µM] | 3 | COCC(=O)N(C)C[C@H]1Oc2cc(C#CC(C)(C)O)ccc2S(=O)(=O)N([C@H](C)CO)C[C@H]1C |
| 34[16.7 µM] | -14 | C[C@@H]1CN([C@@H](C)CO)S(=O)(=O)c2ccc(-c3ccccc3)cc2O[C@H]1CN(C)S(=O)(=O)c1ccccc1F |
| -4[16.7 µM] | -4 | C[C@@H]1CN([C@H](C)CO)S(=O)(=O)c2ccc(C#CCN(C)C)cc2O[C@H]1CN(C)Cc1ccc(F)cc1 |
| 10[16.7 µM] | 3 | CCNC(=O)C[C@H]1CC[C@@H]2[C@@H](COc3ccc(NC(=O)c4cccc(OC)c4)cc3C(=O)N2C)O1 |
| -23[16.7 µM] | -12 | C[C@@H]1CN([C@@H](C)CO)C(=O)CCCn2cc(nn2)CO[C@H]1CN(C)Cc1ccc(C(F)(F)F)cc1 |
| 6[16.7 µM] | -12 | C[C@H]1CN([C@@H](C)CO)C(=O)c2cc(-c3ccncc3)cnc2O[C@@H]1CN(C)Cc1cccnc1 |
| 6[16.7 µM] | 2 | C[C@H](CO)N1C[C@H](C)[C@H](CN(C)Cc2ccc(-c3ccccc3)cc2)Oc2ccc(NC(=O)c3ccncc3)cc2CC1=O |
| -142[16.7 µM] | 8 | C[C@@H]1CN([C@H](C)CO)C(=O)c2cccc(NC(=O)Nc3ccc(C(F)(F)F)cc3)c2O[C@H]1CN(C)C(=O)NC1CCCCC1 |
| -80[16.7 µM] | 14 | C[C@H]1CCCCO[C@@H](CN(C)C(=O)NC2CCCCC2)[C@@H](C)CN([C@@H](C)CO)C(=O)c2cc(NC(=O)c3ccncc3)ccc2O1 |
| 7[16.7 µM] | -10 | CO[C@@H]1CN(C)C(=O)c2cc(NS(=O)(=O)c3ccccc3F)ccc2OC[C@@H](C)NC[C@@H]1C |
| -20[16.7 µM] | -5 | O=C(Nc1cccc(Cl)c1)N[C@@H]1CC[C@H](CCNC(=O)C2CCOCC2)O[C@H]1CO |
| 5[16.7 µM] | -6 | O=C(C[C@@H]1CC[C@@H](NC(=O)CN2CCOCC2)[C@H](CO)O1)NC1CCCCC1 |
| -4[16.7 µM] | -5 | CNC(=O)C[C@@H]1CC[C@@H]2[C@@H](COc3ccc(NC(=O)c4ccc(OC)cc4)cc3C(=O)N2C)O1 |
| 9[16.7 µM] | 7 | CCS(=O)(=O)Nc1ccc2c(c1)C(=O)N(C)[C@@H]1CC[C@H](CC(=O)N3CCCCC3)O[C@H]1CO2 |
| 2[16.7 µM] | 1 | C[C@H](CO)N1C[C@H](C)[C@H](CN(C)Cc2cncnc2)Oc2cc(C3=CCCC3)ccc2S1(=O)=O |
| -7[16.7 µM] | 21 | C[C@@H](NC(=O)C[C@H]1C[C@@H]2c3cc(NS(C)(=O)=O)ccc3O[C@@H]2[C@@H](CO)O1)c1ccccc1 |
| 12[16.7 µM] | -2 | O=C(C[C@H]1CC[C@@H]2[C@H](COC[C@H](O)CN2Cc2cocn2)O1)NCc1cccc(F)c1 |
| -10[16.7 µM] | 5 | COc1ccccc1C#Cc1ccc2c(c1)O[C@@H](CN(C)Cc1cncnc1)[C@H](C)CN([C@@H](C)CO)S2(=O)=O |
| 4[16.7 µM] | -9 | COCC(=O)Nc1ccc2c(c1)C(=O)N(C)C[C@H](OC)[C@H](C)CN(CCc1ccccc1)[C@H](C)CO2 |
| 15[16.7 µM] | 13 | CN1C(=O)c2cc(NS(C)(=O)=O)ccc2OC[C@@H]2O[C@@H](CC(=O)NCc3ccccc3)CC[C@@H]21 |
| -7[16.7 µM] | 4 | C[C@@H]1CN([C@@H](C)CO)C(=O)Cc2cc(NC(=O)C3CC3)ccc2O[C@H]1CN(C)S(=O)(=O)c1ccccc1 |
| -52[16.7 µM] | 6 | C[C@@H]1CCCCO[C@H](CN(C)C(=O)Nc2ccc3c(c2)OCO3)[C@@H](C)CN([C@@H](C)CO)C(=O)c2cc(NS(=O)(=O)c3cccs3)ccc2O1 |
| -27[16.7 µM] | -8 | C[C@@H]1CN([C@H](C)CO)C(=O)c2cc(-c3ccncc3)cnc2O[C@H]1CN(C)C(=O)Cc1cccnc1 |
| 21[16.7 µM] | 4 | COc1ccc(S(=O)(=O)N(C)C[C@H]2OCCCC[C@H](C)Oc3ccc(NC(=O)Nc4cccc5ccccc45)cc3C(=O)N([C@@H](C)CO)C[C@H]2C)cc1 |
| 8[16.7 µM] | -7 | C[C@H](O)C#Cc1ccc2c(c1)O[C@H](CN(C)C(=O)CN(C)C)[C@@H](C)CN([C@H](C)CO)S2(=O)=O |
| -11[16.7 µM] | -19 | CCCNC(=O)Nc1ccc2c(c1)C(=O)N(C)[C@H]1CC[C@H](CC(=O)O)O[C@@H]1CO2 |
| 2[16.7 µM] | 21 | C[C@H]1CN([C@@H](C)CO)C(=O)Cc2cc(NC(=O)Nc3ccc(F)cc3)ccc2O[C@@H]1CN(C)CC1CC1 |
| -5[16.7 µM] | -2 | NCC[C@@H]1CC[C@@H](NC(=O)C2CCC2)[C@H](CO)O1 |
| 0[16.7 µM] | -8 | CN1CCN(C(=O)C[C@@H]2CC[C@@H]3[C@@H](COc4ccc(NC(=O)c5ccc(F)c(F)c5)cc4C(=O)N3C)O2)CC1 |

Continued; the last five above are carried over.
| HIV Env fusion | UUG fidelity | SMILES |
| --- | --- | --- |
| 8[16.7 µM] | -7 | C[C@H](O)C#Cc1ccc2c(c1)O[C@H](CN(C)C(=O)CN(C)C)[C@@H](C)CN([C@H](C)CO)S2(=O)=O |
| -11[16.7 µM] | -19 | CCCNC(=O)Nc1ccc2c(c1)C(=O)N(C)[C@H]1CC[C@H](CC(=O)O)O[C@@H]1CO2 |
| 2[16.7 µM] | 21 | C[C@H]1CN([C@@H](C)CO)C(=O)Cc2cc(NC(=O)Nc3ccc(F)cc3)ccc2O[C@@H]1CN(C)CC1CC1 |
| -5[16.7 µM] | -2 | NCC[C@@H]1CC[C@@H](NC(=O)C2CCC2)[C@H](CO)O1 |
| 0[16.7 µM] | -8 | CN1CCN(C(=O)C[C@@H]2CC[C@@H]3[C@@H](COc4ccc(NC(=O)c5ccc(F)c(F)c5)cc4C(=O)N3C)O2)CC1 |
| 12[16.7 µM] | 29 | O=S(=O)(N[C@H]1CC[C@@H](CCn2cc(-c3ccc(F)cc3)nn2)O[C@@H]1CO)c1ccccc1F |
| 17[16.7 µM] | 4 | C[C@@H]1CN([C@H](C)CO)S(=O)(=O)c2ccc(C3=CCCCC3)cc2O[C@H]1CN(C)C(=O)Cc1ccccc1 |
| 13[16.7 µM] | 29 | CO[C@@H]1CN(C)C(=O)c2cc(NS(C)(=O)=O)ccc2OC[C@@H](C)N(C(=O)CN(C)C)C[C@H]1C |
| 3[16.7 µM] | 15 | O=C(N[C@@H]1CC[C@H](CCNC(=O)C2CCC2)O[C@@H]1CO)c1ccccn1 |
| -6[16.7 µM] | -12 | Cc1noc(C)c1NC(=O)Nc1ccc2c(c1)C(=O)N([C@@H](C)CO)C[C@H](C)[C@@H](CN(C)C)OCCCC[C@H](C)O2 |
| 2[16.7 µM] | -10 | CC(C)NC(=O)NCC[C@H]1CC[C@H](NC(=O)CN(C)C)[C@@H](CO)O1 |
| -51[16.7 µM] | 6 | CC(C)C#Cc1ccc2c(c1)O[C@H](CN(C)C(=O)c1ccccc1)[C@@H](C)CN([C@H](C)CO)S2(=O)=O |
| -83[16.7 µM] | -10 | C[C@@H]1CCCCO[C@H](CN(C)C(=O)Nc2ccc(C(F)(F)F)cc2)[C@@H](C)CN([C@H](C)CO)C(=O)c2cc(NC(=O)CCC(F)(F)F)ccc2O1 |
| -5[16.7 µM] | 10 | COc1ccc(S(=O)(=O)Nc2ccc3c(c2)C(=O)N([C@@H](C)CO)C[C@@H](C)[C@@H](CN(C)C(=O)CCCN(C)C)OCCCC[C@H](C)O3)cc1 |
| 2[16.7 µM] | 12 | O=C(Cc1ccncc1)NCC[C@H]1CC[C@H](NC(=O)Nc2ccc(F)cc2)[C@H](CO)O1 |
| -15[16.7 µM] | 21 | C[C@H]1CN([C@@H](C)CO)C(=O)c2cc(C#CCN(C)C)cnc2O[C@H]1CN(C)C(=O)c1ccc2c(c1)OCO2 |
| -12[16.7 µM] | -6 | CN1C(=O)c2cc(NC(=O)c3cc(F)cc(F)c3)ccc2OC[C@H]2O[C@@H](CC(=O)O)CC[C@@H]21 |
| 19[16.7 µM] | -9 | C[C@@H]1CN([C@@H](C)CO)C(=O)c2cccc(NC(=O)C3CC3)c2O[C@@H]1CN(C)S(=O)(=O)c1cn(C)cn1 |
| -92[16.7 µM] | -3 | C[C@@H]1CCCCO[C@@H](CN(C)C(=O)C2CCCCC2)[C@H](C)CN([C@@H](C)CO)C(=O)c2cc(NS(=O)(=O)c3ccc(F)cc3)ccc2O1 |
| 12[16.7 µM] | 3 | C[C@H]1CN([C@@H](C)CO)C(=O)c2cc(NC(=O)C3CCCCC3)ccc2O[C@H]1CN(C)C(=O)Nc1ccc(F)cc1 |
| 4[16.7 µM] | 6 | CC(C)CC#Cc1cnc2c(c1)C(=O)N([C@@H](C)CO)C[C@H](C)[C@@H](CN(C)CC1CCOCC1)O2 |
| 2[16.7 µM] | -8 | C[C@H]1CN([C@@H](C)CO)C(=O)Cc2cc(NC(=O)Cc3cn(C)c4ccccc34)ccc2O[C@H]1CN(C)Cc1ccccc1 |
| -14[16.7 µM] | 15 | CCCNC(=O)Nc1ccc2c(c1)C(=O)N(C)C[C@H](OC)[C@H](C)CN(C)[C@H](C)CO2 |
| -6[16.7 µM] | 3 | O=C(CN1CCOCC1)NCC[C@@H]1CC[C@@H](NC(=O)c2ccccc2F)[C@@H](CO)O1 |
| 0[16.7 µM] | 7 | O=C(N[C@H]1CC[C@@H](CCNS(=O)(=O)Cc2ccccc2)O[C@@H]1CO)c1ccccc1F |
| 4[16.7 µM] | 3 | COCC#Cc1ccc2c(c1)O[C@@H](CN(C)C(=O)NC(C)C)[C@H](C)CN([C@@H](C)CO)S2(=O)=O |
| 1[16.7 µM] | 8 | C[C@@H]1CN([C@H](C)CO)C(=O)c2cc(C3=CCCC3)cnc2O[C@@H]1CN(C)C(=O)c1ccccc1 |
| 11[16.7 µM] | 8 | CCCNC(=O)N(C)C[C@H]1Oc2ncc(C#CCC(C)C)cc2C(=O)N([C@@H](C)CO)C[C@H]1C |
| 60*[16.7 µM] | 6 | CN(C)CC(=O)Nc1ccc2c(c1)[C@H]1C[C@@H](CC(=O)NCCc3ccccc3)O[C@H](CO)[C@H]1O2 |
| -10[16.7 µM] | 10 | CCCC#Cc1ccc2c(c1)O[C@@H](CN(C)C(=O)C1CC1)[C@@H](C)CN([C@@H](C)CO)S2(=O)=O |
| -36[16.7 µM] | -7 | C[C@H]1CCCCO[C@@H](CN(C)Cc2ccc(C(=O)O)cc2)[C@@H](C)CN([C@@H](C)CO)C(=O)c2cc(NS(=O)(=O)c3cn(C)cn3)ccc2O1 |
| 21[16.7 µM] | 3 | N#C[C@H]1[C@H](c2ccc(C3=CCCCC3)cc2)[C@@H](CO)N1C(=O)CN1CCOCC1 |
| 20[16.7 µM] | 17 | Cc1noc(C)c1NC(=O)Nc1ccc2c(c1)C(=O)N([C@H](C)CO)C[C@@H](C)[C@H](CN(C)Cc1ccc(C(=O)O)cc1)OCCCC[C@H](C)O2 |
| -23[16.7 µM] | 0 | C[C@@H]1CCCCO[C@@H](CN(C)Cc2ccccc2)[C@@H](C)CN([C@H](C)CO)C(=O)c2cc(NS(=O)(=O)c3ccc(F)cc3)ccc2O1 |
| 16[16.7 µM] | 2 | O=C(C[C@@H]1C=C[C@@H](NC(=O)c2ccccc2)[C@H](CO)O1)Nc1ccc(-c2ccccc2)cc1 |
| -36[16.7 µM] | -11 | Cc1noc(C)c1NC(=O)Nc1ccc2c(c1)C(=O)N([C@H](C)CO)C[C@H](C)[C@H](CN(C)Cc1ccc(Cl)c(Cl)c1)O2 |
| 2[16.7 µM] | 3 | CN(C)CC(=O)N[C@H]1CC[C@@H](CC(=O)NCc2ccccc2F)O[C@@H]1CO |
| 34[16.7 µM] | -9 | C[C@@H]1CN([C@@H](C)CO)C(=O)c2cc(NC(=O)C3CCCCC3)ccc2O[C@H]1CN(C)Cc1ccc(Oc2ccccc2)cc1 |
| 18[16.7 µM] | -17 | CC(C)NC(=O)N(C)C[C@@H]1Oc2ccc(NC(=O)Nc3ccccc3)cc2C(=O)N([C@H](C)CO)C[C@H]1C |
| -4[16.7 µM] | 7 | CCCNC(=O)N1[C@H](CO)[C@H](c2ccccc2)[C@@H]1C#N |
| -1[16.7 µM] | 4 | CO[C@@H]1CN(C)C(=O)c2ccc(NC(=O)NC(C)C)cc2OC[C@H](C)N(C(=O)CN(C)C)C[C@H]1C |
| 2[16.7 µM] | 3 | C[C@@H]1CCCCO[C@H](CN(C)C(=O)NC2CCCCC2)[C@H](C)CN([C@@H](C)CO)C(=O)c2cc(NC(=O)C3CCCCC3)ccc2O1 |
| -16[16.7 µM] | 5 | C[C@H]1CN([C@@H](C)CO)S(=O)(=O)c2ccc(-c3ccc(C#N)cc3)cc2O[C@@H]1CN(C)C(=O)Nc1cc(F)ccc1F |
| -24[16.7 µM] | 18 | COc1ccc(NC(=O)N[C@@H]2CC[C@@H](CC(=O)NC3CCCCC3)O[C@@H]2CO)cc1 |
| 1[16.7 µM] | -14 | O=C(C[C@@H]1CC[C@H](NS(=O)(=O)c2ccc(F)cc2)[C@H](CO)O1)NCCc1ccncc1 |
| 17[16.7 µM] | 4 | C[C@@H]1CN([C@H](C)CO)C(=O)c2cccc(NC(=O)Nc3ccc4c(c3)OCO4)c2O[C@H]1CN(C)Cc1ccc(-c2ccccc2)cc1 |
| -4[16.7 µM] | -15 | O=C(C[C@H]1C=C[C@@H](NC(=O)c2ccc(F)cc2)[C@@H](CO)O1)NCCc1ccncc1 |
| -8[16.7 µM] | -10 | O=C(CN1CCOCC1)NCC[C@@H]1CC[C@@H](NC(=O)Nc2ccc(F)cc2)[C@@H](CO)O1 |
